STK33 kinase inh = blocks human STK33 kinase activity; 320,000 tested, 0.073% active; inhibition, % at 10 µM; purified STK33, MBP phosphorylation, ADP-Glo luminescence; AID 2661; Q9BYT3;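 active = inhibition at or above 25%, using the most active replicate where run in duplicate; inactive = inhibition below 25%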
Target sequence (Q9BYT3 whole entry, looked up): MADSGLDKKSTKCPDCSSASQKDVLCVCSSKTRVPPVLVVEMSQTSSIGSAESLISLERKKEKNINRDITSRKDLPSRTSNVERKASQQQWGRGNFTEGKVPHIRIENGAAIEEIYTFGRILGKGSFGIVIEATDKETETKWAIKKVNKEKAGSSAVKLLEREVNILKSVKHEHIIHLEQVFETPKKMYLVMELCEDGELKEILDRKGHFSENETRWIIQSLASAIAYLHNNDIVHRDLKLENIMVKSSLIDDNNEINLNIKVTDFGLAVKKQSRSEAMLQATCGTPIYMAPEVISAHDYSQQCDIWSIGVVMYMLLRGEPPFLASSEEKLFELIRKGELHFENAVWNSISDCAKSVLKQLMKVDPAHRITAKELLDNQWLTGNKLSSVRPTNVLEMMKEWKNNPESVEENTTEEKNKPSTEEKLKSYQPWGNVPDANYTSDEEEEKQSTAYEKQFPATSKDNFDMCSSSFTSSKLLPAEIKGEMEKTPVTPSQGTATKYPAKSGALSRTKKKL
Kir21 block = blocks the mouse Kir2.1 inward-rectifier potassium channel. B-score at 10 µM. 310,000 tested, 0.85% active. P35561. HEK293-Kir2.1, FluxOR thallium flux fluorescence; hits give low values;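 active = fluorescence ratio B-score at or below minus 3 SD of library scores, with starting-brightness B-score within 2 SD, cut at about -4.2 in these data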;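 also: channel flux triggered by added potassium and thallium sulfate stimulus; B-score of peak minus minimum fluorescence over baseline after thallium stimulus; more negative B-score means stronger Kir2.1 block with less thallium influx; some compounds called inactive have numbers as strong as hits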
Target sequence (P35561 whole entry, looked up): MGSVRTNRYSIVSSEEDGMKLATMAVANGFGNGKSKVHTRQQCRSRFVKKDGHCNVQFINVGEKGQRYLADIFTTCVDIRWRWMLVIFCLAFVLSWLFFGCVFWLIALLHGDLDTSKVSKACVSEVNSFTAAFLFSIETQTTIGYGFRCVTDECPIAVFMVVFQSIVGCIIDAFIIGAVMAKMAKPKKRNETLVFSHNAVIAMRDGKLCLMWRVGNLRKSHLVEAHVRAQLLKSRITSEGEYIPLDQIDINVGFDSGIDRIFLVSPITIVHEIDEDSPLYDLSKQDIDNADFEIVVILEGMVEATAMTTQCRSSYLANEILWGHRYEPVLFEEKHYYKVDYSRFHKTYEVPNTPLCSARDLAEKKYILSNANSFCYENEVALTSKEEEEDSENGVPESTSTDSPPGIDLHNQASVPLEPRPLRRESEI
* marks the source's active call; other numbers are inactive results.

structure,STK33 kinase inh,Kir21 block
CN1C(C(=O)NCc2cccc(C(F)(F)F)c2)CC2Cn3c(nc4ccccc43)C21 (configuration not stated),1.3,-0.16
O=C(O)C1CC(=O)N(C2CCCCC2)C1c1ccccc1 (configuration not stated),-1.4,-0.11
COc1ccc(S(=O)(=O)Nc2cc(C(=O)NC(C)C)ccc2N2CCOCC2)cc1,0.1,0.55
COc1cc2[nH]c(=S)n(Cc3ccccc3)c(=O)c2cc1OC,-0.3,-0.05
Cc1ccc(NC(=O)C(C)N2C(=O)c3ccccc3S2(=O)=O)cc1Cl (configuration not stated),0.7,0.04
COC(=O)Nc1nn(-c2ccc(Cl)cc2)c(=O)c(C#N)c1C,0.0,0.52
CCOC(=O)c1oc2ccccc2c1COC(=O)CNC(=O)c1ccccc1OC,-1.2,0.67
c1ccc(N2CCN(c3c4c(nc5ncnn35)CCC4)CC2)cc1,-0.2,0.17
CC(=O)Nc1ccc(S(=O)(=O)NCC2CCC(C(=O)NC(C)c3ccc4c(c3)OCCO4)CC2)cc1 (configuration not stated),0.3,1.1
COc1cc(OC)c(NC(=S)Nc2cccc(C)c2)cc1Cl,1.2,0.16

Further entries
structure,STK33 kinase inh,Kir21 block
Cc1noc(C)c1C(=O)NCCc1ccc(Cl)cc1,-0.8,-0.09
CC1CN(S(=O)(=O)c2ccc(C(=O)Nc3nnc(-c4ccccn4)o3)cc2)CC(C)O1 (configuration not stated),-0.7,-0.18
CCN(CC)S(=O)(=O)c1ccc2c(c1)c(=O)c(C(=O)NCCN(C)CCc1ccccc1)cn2C,0.1,0.91
O=C(Nc1ccccc1)c1oc2ccccc2c1NC(=O)C1CC1,-0.8,-0.99
Cn1c(-c2ccc(-c3ccccc3)cc2)c[nH]c1=S,0.1,0.49
Cc1cc(Cl)ccc1C(=O)C1CCCN(C(=O)CCn2cncn2)C1 (configuration not stated),-0.5,1.4
CCc1ccc(NC(=O)Cc2cn(C)c3ccccc23)cc1,-4.0,-0.69
CCOc1ccccc1NC(=O)C1CCCN(S(=O)(=O)c2c(C)[nH]c(=O)[nH]c2=O)C1 (configuration not stated),0.6,-0.7
COCCCN1C(=O)C(=O)/C(=C(/O)c2ccc(S(=O)(=O)N3CCCCC3)cc2)C1c1cccc(OC)c1 (configuration not stated),-0.1,0
C=CCn1c(SCC(=O)NC23CC4CC(CC(C4)C2)C3)nc2cc(C(=O)O)ccc2c1=O,-0.4,1.8

By substructure, those above containing an NH in an aromatic ring (3)
structure,STK33 kinase inh,Kir21 block
COc1cc2[nH]c(=S)n(Cc3ccccc3)c(=O)c2cc1OC,-0.3,-0.05
Cn1c(-c2ccc(-c3ccccc3)cc2)c[nH]c1=S,0.1,0.49
CCOc1ccccc1NC(=O)C1CCCN(S(=O)(=O)c2c(C)[nH]c(=O)[nH]c2=O)C1 (configuration not stated),0.6,-0.7

Further compounds
structure,STK33 kinase inh,Kir21 block
COC(=O)c1ccc(C(=O)OC)c(NC(=O)CN2CCN(c3ccccc3OC)CC2)c1,-0.4,-0.31
Nc1ccc(C#Cc2c(-c3ccsc3)oc3ccc(N4CCOCC4)cc23)cc1,-0.8,0.06
Fc1ccc(N/N=C/c2ccc(N3CCOCC3)cc2)c(F)c1,-0.9,0.17
O=C(O)c1cc(S(=O)(=O)Nc2ccc3c(c2)OCCO3)c(Cl)cc1Cl,1.6,0.18
Cc1ccc2nc(-c3ccccc3)c(CN3CCOCC3)n2c1,-2.1,-2.1
Cn1c(SCc2ccc([N+](=O)[O-])cc2)nnc1-c1ccncc1,1.0,0.29
O=C(NCC(c1cccs1)N1CCOCC1)c1ccccc1NS(=O)(=O)c1cccc([N+](=O)[O-])c1 (configuration not stated),-1.1,0.85
CC(C)c1ccc(-n2ccnc2SCC(=O)O)cc1,0.3,1.8
COc1ccc(S(=O)(=O)NCC2CCC(C(=O)NCc3cccnc3)CC2)cc1 (configuration not stated),1.1,-1.1
Cc1cccc(N2CCN(S(=O)(=O)c3ccc(S(=O)(=O)N4CCCC4)cc3)CC2)c1C,-1.1,-2.1

Further entries follow:
structure,STK33 kinase inh,Kir21 block
CCC(C)Sc1nc2c(c(=O)[nH]c(=O)n2C)n1CC(O)COc1cccc2ccccc12 (configuration not stated),-0.7,-0.9
O=C(/C=C/c1ccc(Cl)cc1Cl)NC(=S)Nc1ccc(CN2CCOCC2)cc1,-1.4,-0.32
Cc1ccc(S(=O)(=O)N2CCN(c3c([N+](=O)[O-])cc(C(F)(F)F)cc3[N+](=O)[O-])CC2)cc1,0.8,0.82
NC(=O)CC1(CC(=O)O)CCCCC1,0.7,1
CCN(CC)CCCNC(=O)Cn1nc([N+](=O)[O-])c(Cl)c1C,1.2,1.9
CC(=O)Nc1ccc(S(=O)(=O)N2c3ccccc3C(C)=CC2(C)C)cc1,-0.3,0.6
COc1ccc(S(=O)(=O)N2CCOC2CNC(=O)C(=O)NCCCN(C)C)cc1C (configuration not stated),0.5,0.03
CCC(C)(C)n1nnnc1C(c1ccc2ncccc2c1)N1CCCCCC1 (configuration not stated),-2.2,-0.05
CCOC(=O)Cn1c(N)c(C(=O)OC)sc1=S,0.2,-0.69
CCN(CC)S(=O)(=O)c1ccc(OC)c(NC(=S)Nc2cc(C)ccc2C)c1,-0.7,-0.73

Continued.
structure,STK33 kinase inh,Kir21 block
O=C(c1cc(COc2ccc(F)cc2F)on1)N1CC2C[C@@H]3CC1C[C@H](C2)C3,0.8,1.2
CC(C)(C)c1cc(CCC(=O)N2CCCC2)cc(C(C)(C)C)c1O,-0.2,-3
CC(C)CNc1cc(N2CCCC2)ccc1[N+](=O)[O-],0.4,-0.67
CCOC(=O)C1CCN(c2cc(=O)n(Cc3ccc(F)cc3)c(=O)[nH]2)CC1,-0.1,-1.9
COc1ccc(COC(=O)C2=C(C)NC(=O)NC2c2ccccc2F)cc1 (configuration not stated),11,0.95
COCCN1C=C(C(=O)OC)C(c2ccccc2Cl)C(C(=O)OC)=C1,-0.1,-0.76
O=C(CSc1ccc2nnc(-c3ccccn3)n2n1)NCc1ccc2c(c1)OCO2,-2.0,1.1
Cc1ccc(-n2cc(C(=O)c3ccccc3O)cn2)cc1,-1.9,0.02
COc1ccccc1N(CC(=O)N1CCN(c2ccccc2)CC1)S(=O)(=O)c1ccc(C)cc1,0.1,0.11
COc1cccc(CN2C(=O)N(C(C)C)C(N(O)C(=O)NC(C)C)C2(C)C)c1OC (configuration not stated),0.3,-0.42

Later entries.
structure,STK33 kinase inh,Kir21 block
O=C1C=C(O)C(n2cncn2)C(c2cc(F)ccc2F)C1 (configuration not stated),-0.5,-3.8
Cc1ccc(S(=O)(=O)N2CCN(C(=O)c3ccccc3)CC2)c(C)c1NS(C)(=O)=O,-0.2,1.9
O=C(NCCCl)c1ccc(OCc2ccccc2)cc1Cl,0.1,-0.39
Cc1csc(NC(=O)C2CC(=O)N(Cc3ccco3)C2)n1 (configuration not stated),-0.6,-0.89
COc1ccc(/C=N/N2CCN(Cc3ccccc3)CC2)cc1,-0.1,-0.79
COC(=O)c1ccccc1NC(=O)c1cc(C)no1,-0.3,-0.14
CCc1cc(=O)oc2cc(OCC(=O)O)c(Cl)cc12,-0.4,2
c1ccc(N2OCC3Cn4c(nc5ccccc54)C32)cc1 (configuration not stated),-1.0,1.1
CC/C(O)=N\S(=O)(=O)c1ccc(N=NN(C)C)cc1,-0.6,2.1
Cc1cc(C)c(C)c(S(=O)(=O)N[C@@H](C)C(=O)OCC(N)=O)c1C,0.2,0.45

Following part
structure,STK33 kinase inh,Kir21 block
CC12CC(c3ccccc3O1)C(C(=O)N1CCOCC1)C(=O)N2 (configuration not stated),-0.9,1.1
O=C(c1ccccc1)N1CCC(=O)N1c1ccccc1,0.3,-0.71
COCCN1Cc2cccc(C(=O)N3CCN(c4ccccc4)CC3)c2C1=O,-1.9,0.19
CCC(C)(C)NC(=O)CN(Cc1ccco1)C(=O)CCC(=O)Nc1nccs1,-0.2,1.2
CC(C)c1ccc(OCC(O)CN2CCN(c3ccccc3)CC2)cc1 (configuration not stated),-0.8,-0.05
Cc1noc(C)c1COc1cccc(C(=O)OC(C)C(=O)Nc2c(C)n(C)n(-c3ccccc3)c2=O)c1 (configuration not stated),-4.0,1.1
Cc1ccc(CNC(=O)C(NS(=O)(=O)c2ccc3nc(C)sc3c2)C(C)C)cc1 (configuration not stated),-2.4,0.04
CCCc1nc(N)nc2c1C(=O)CC(C)(C)C2,-1.2,-1.6
CCOC(=O)c1sc(=N)n(-c2ccc(OC)cc2)c1C,-1.2,-0.65
O=C(NCC1CCOCC1)c1cc(COc2cccc(C(F)(F)F)c2)on1,-0.5,1

Additional compounds follow:
structure,STK33 kinase inh,Kir21 block
COC(=O)c1ccc(-c2ccco2)n1Cc1cc(C)ccc1C,0.2,-0.1
O=C(COC(=O)c1ccccc1NC(=O)C1CC1)c1ccc2c(c1)OCCO2,-1.6,0.32
Cc1cc(/C=C2\SC(=S)NC2=O)c(C)n1-c1ccccc1,0.6,1.4
CC(=O)Nc1ccc(NC(=O)CCC(=O)Oc2ccc(C)cc2)cc1,-0.6,-0.61
CC(=O)Nc1cccc(C(=O)OCc2ccc([N+](=O)[O-])cc2)c1,0.2,0.47
COc1ccccc1CNC(=O)C(NC(=O)c1ccc(C)cc1)C(C)C (configuration not stated),0.3,0.56
CCc1ccc(N2C(=O)C3C(C2=O)N2CCCN2C3c2ccccc2)cc1 (configuration not stated),0.1,1.4
O=C(NC(=S)N1CCCC1)c1ccccc1,-1.9,0.05
c1ccc(-c2nnc3sc(CN4CCC5(CC4)OCCO5)cn23)cc1,-1.4,-0.03
OC(c1ccc(F)cc1)C(CN1CCOCC1)c1ccccc1 (configuration not stated),-2.4,0.99

Four entries from above, reformatted:
COc1ccccc1CNC(=O)C(NC(=O)c1ccc(C)cc1)C(C)C (configuration not stated)
  STK33 kinase inh = 0.3 | Kir21 block = 0.56

CCc1ccc(N2C(=O)C3C(C2=O)N2CCCN2C3c2ccccc2)cc1 (configuration not stated)
  STK33 kinase inh = 0.1 | Kir21 block = 1.4

O=C(NC(=S)N1CCCC1)c1ccccc1
  STK33 kinase inh = -1.9 | Kir21 block = 0.05

c1ccc(-c2nnc3sc(CN4CCC5(CC4)OCCO5)cn23)cc1
  STK33 kinase inh = -1.4 | Kir21 block = -0.03

(more compounds)
structure,STK33 kinase inh,Kir21 block
O=C(CN1C(=O)/C(=C/c2ccccc2)SC1=S)NC1CCS(=O)(=O)C1 (configuration not stated),0.4,1
O=C(c1cn2ccccc2n1)N1CCc2c([nH]c3ccccc23)C1c1ccccn1 (configuration not stated),-0.8,1.4
COc1ccc(CCNS(=O)(=O)c2cccc(C)c2)cc1OC,-0.1,-0.12
COc1ccc2[nH]cc(CCNC(=O)C3CC(=O)N(c4ccc(Cl)cc4)C3)c2c1 (configuration not stated),-2.5,-0.9
CC(=O)c1ccc(N(CC(=O)NC2CCCC2)C(=O)CNC(=O)c2cccs2)cc1,0.5,0.02
CCN(CC)C(=S)NCCc1ccccc1,-1.3,0.07
O=C(CC12CC3CC(CC(C3)C1)C2)NCCN1CCOCC1,-2.0,0
CCCCN(C)CCCNC(=O)C1CCC(CNS(=O)(=O)c2c(C)cc(C)cc2C)CC1 (configuration not stated),-0.9,1.9
O=C(N/N=C/C1=C(N2CCOCC2)C(=C\c2ccccc2)/CC1)Nc1ccccc1,-0.5,-0.32
O=C(CSc1nnc(COc2ccc(Cl)cc2)o1)NC1CC2CCC1C2 (configuration not stated),-0.6,1.5

Further entries follow.
structure,STK33 kinase inh,Kir21 block
CCn1cc(Br)c(-c2nc3ccccc3c(=O)n2N)n1,1.9,-0.14
CCOC(=O)c1cc(-c2ccccc2)nn1CCC#N,-1.2,0.71
Nc1c(-c2cccs2)cnc2c(-c3ccc(F)cc3)cnn12,0.7,-0.1
CC1CC(C)CN(c2ncnc3c2cnn3-c2ccc(Cl)cc2)C1 (configuration not stated),-0.3,-1.7
COc1ccc(/C=C2\SC(=S)N(CC3CCCO3)C2=O)cc1 (configuration not stated),-1.4,-0.46
Cc1ccc(NS(=O)(=O)c2ccc(NC(=O)c3ccc(-c4ccccc4)cc3)cc2)c(C)c1,-1.5,-1.2
Cc1ccc(-c2nn(-c3cc(Cl)ccc3[N+](=O)[O-])c(=O)c3ccccc23)cc1,1.4,-0.3
O=C(OCC(F)(F)C(F)F)c1ccccc1C(=O)Oc1ccc(F)cc1F,-0.3,-1.8
CN1C(=O)c2cccc3c(S(=O)(=O)NCCc4ccccc4)ccc1c23,1.6,0.27
COc1ccc2c(c1OC)C(=O)N1C2SC[C@H]1C(=O)NC1CC1 (some centres not stated),4.0,1

Next compounds
structure,STK33 kinase inh,Kir21 block
O=C(/C=C/c1ccc(Cl)c(Cl)c1)NC1=NCCS1,-0.3,0.43
COc1ccc(/C=C/C(=O)c2cc(Br)ccc2OC(=O)c2ccco2)cc1OC,0.7,0.22
COc1cc2[nH]c(=O)n(CCCC(=O)NC3CCCCC3)c(=O)c2cc1OC,0.6,-0.45
CC(=O)N1CCN(c2nc3ccc(Br)cc3s2)CC1,2.5,-0.27
CC1CCN(C(=O)CSc2nnc(N)s2)CC1,1.2,-2.7
COc1ccc(NC(=O)/C=C/c2ccc3c(c2)OCO3)cc1,0.6,1.6
COc1ccccc1NC(=O)Cn1nc(C)n2cccc2c1=O,-1.3,-0.88
Cc1cccc(N(CC(=O)NCC2CCCO2)C(=O)CCC(=O)Nc2nccs2)c1 (configuration not stated),-0.7,0.23
N#CCSc1nnc(SCC#N)s1,-0.1,0.68
O=C(CSc1nnc(CNC(=O)c2cccs2)o1)Nc1ccccc1C(F)(F)F,-2.7,-0.03
CCCN(C(=O)c1cccs1)c1nnc(-c2ccncc2)s1,-0.3,-1.7

These rows are one share of the data, and most or all hits are left out here.
